2A StopGo – FMDV 2A StopGo reporter, luciferase signal | human cells with a luciferase reporter of 2A StopGo recoding; control for the full effect not named in the record | Potency, µM (doses to about 57.9 µM), inactives show at the top dose signal change, negative = less light | hit rate 1.2% among 410,000 | AID 1159524; active = well fitted falling curve with a large enough effect; inconclusive = small, poorly fitted or top-dose-only effect; inactive = no such curve, though single readings can be large or run the other way; tested in HEK293T cells; note: nearly all actives have a fitted effect of over 45% in size; luciferase light after 4 h
RE007 growth inh – less growth of the S. pombe RE007 Vpr strain; S. pombe RE007 Vpr strain, BacTiter-Glo ATP luminescence, 24 h; control for the full effect not named in the record; Potency, µM (top dose mostly 92.2 µM), inactives show at the top dose activity change, negative = less growth; hit rate 0.21% among 360,000; AID 651644; active = well fitted falling curve with a large enough effect; inconclusive = small, poorly fitted or top-dose-only effect; inactive = no such curve, though single readings can be large or run the other way;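 note: nearly all actives have a fitted effect of over 50% in size; the assay follows cell death caused by Vpr and the record does not say whether a fall means rescue or toxicity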
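Fission yeast strain RE007, carrying one chromosomally integrated HIV-1 vpr copy, was seeded at OD 0.01 in PMG+AL medium with 23 nL pinned compound. After 24 h at 30 °C and 99% humidity, viability was read by BacTiter-Glo luminescence.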
Numbers without * were called inactive; ? = inconclusive; [ ] = another dose, or the depositor's remark. % is set by controls: 0 for no effect and ±100 for the full control effect; potency is the fitted concentration of half-maximal effect. Some of the compounds tested. The share of hits here may be higher or lower than overall.

SMILES	2A StopGo	RE007 growth inh
CC1(c2nnc(Cc3ccccc3)o2)CC(c2c(Cl)cccc2Cl)=NO1 (stereo not given)	-7.8%	-9.5%
CC(=O)Nc1cc(-c2ccc(CO)cc2)cn2c(-c3cccc(C(F)(F)F)c3)cnc12	-23.4%	-20.9%[18.4 µM]
O=C(NCCCN1CCCC1=O)C(=O)NCC1OCCN1S(=O)(=O)c1cc(F)ccc1F (stereo not given)	?	-2.1%
CC(=O)c1ccc(OCc2c(-c3ccccc3)nnn2CC(=O)NS(=O)(=O)c2ccc(C)cc2)cc1	-2.0%	-8.5%
CC1(C(=O)NS(=O)(=O)c2ccccc2)CCN1C(=O)C1(c2ccc(Cl)cc2)CCC1 (stereo not given)	21.7%	10.5%
O=C(NCC1CCOCC1)C1Cc2c(-c3ccccc3Oc3ccccc3)ccnc2O1 (stereo not given)	-18.9%	-1.4%
C[C@@H]1CCCCO[C@H](CN(C)C(=O)Nc2ccc3c(c2)OCO3)[C@H](C)CN([C@@H](C)CO)C(=O)c2cc(NS(=O)(=O)c3ccc(Cl)cc3)ccc2O1	-17.9%	-2.3%
COCCNC(=O)C1CCCN(C(=O)c2cc(-c3ccccc3)cs2)CC1 (stereo not given)	33.6%[activator]	10.1%
C[C@H]1CN([C@@H](C)CO)C(=O)Cc2cc(NC(=O)Nc3ccccc3)ccc2O[C@H]1CN(C)Cc1ccccc1	?	-14.0%
Cc1ccc(F)c(S(=O)(=O)NC(=O)C2(C)CCN2C(=O)Cc2cc(F)ccc2F)c1 (stereo not given)	-7.2%	7.1%[18.4 µM]
NS(=O)(=O)c1cnccc1NCCc1ccccc1	2.3%	18.4%
COc1ccc(C(=O)OCC(=O)NC2CC2)cc1	2.7%	7.4%
Cc1ccn2c(C(C)O)nnc2c1 (stereo not given)	-28.9%	-9.7%
CCCCN1C(=O)C(CC(=O)NCc2ccco2)CC(C(=O)N2CCOCC2)=C1C (stereo not given)	-25.5%	11.7%
COc1ccc(-c2csc(NCCc3nc4cc(Cl)c(Cl)cc4n3CCCO)n2)cc1	-15.6%	-4.7%
CC(=O)Nc1cccc(-c2cc(NC(C)=O)c3ncc(-c4cccc(C(C)=O)c4)n3c2)c1	-21.6%	-9.8%
O=C(N[C@@H]1CC[C@@H](CCNC(=O)C2CCOCC2)O[C@@H]1CO)c1ccncc1	-9.6%	6.8%
Cc1cc(Br)cn2c(Cc3ccccc3)c(-c3ccc(F)cc3)nc12	-28.6%	-9.5%
COc1ccc(NC(=O)c2cccc3c(-c4ccc(OC)cc4C)coc23)cc1	?	-1.5%
COc1ccc(S(=O)(=O)N(C)C[C@@H]2OCCCC[C@@H](C)Oc3ccc(NS(=O)(=O)c4cccs4)cc3C(=O)N([C@H](C)CO)C[C@@H]2C)cc1	-5.0%	5.1%
CCCCCn1nnnc1C1(C)CCC(=O)N1Cc1ccco1 (stereo not given)	-19.8%	12.5%
CCOC(=O)C1(C)CCCN(C(=O)c2cc(F)cc(F)c2)C1 (stereo not given)	-11.7%	7.8%
CC(NC(=O)C1CCCN1C(=O)OC(C)(C)C)C(=O)OCc1ccccc1 (stereo not given)	-10.2%	-6.7%[18.4 µM]
COc1ccc(-c2ccc3c(c2)O[C@H](CN(C)C(=O)Nc2ccccc2F)[C@@H](C)CN([C@H](C)CO)S3(=O)=O)cc1	61.1%[activator]	2.5%
CCOC(=O)C1=CCN(S(=O)(=O)c2ccccc2C(=O)OC)C1c1ccc(Cl)cc1 (stereo not given)	-21.3%	-29.4%
CCCN(C)C1CN(Cc2cn(Cc3cccc(Cl)c3)nn2)S(=O)(=O)C1 (stereo not given)	-14.2%	2.4%
CC(C)CNC(=O)C1(C)CCCCCN1C(=O)c1cccnc1 (stereo not given)	-12.0%	9.9%[18.4 µM]
O=C(NC1CCCCC1)c1[nH]c(C(F)(F)F)nc1-c1ccccc1	-17.2%	7.6%
CC1=CC(Cc2ccccc2)N(C)C(C(N)=O)C1 (stereo not given)	-24.4%	-2.7%
O=C(c1cnc(Cl)c(Cl)c1)N1CCN(S(=O)(=O)c2cccs2)CC1	-22.2%	15.4%
CCCNC(=O)Nc1nc(C(N)c2ccc(OC)cc2)cs1 (stereo not given)	-19.4%	-2.6%
COC(=O)C1=C(c2ccccc2)C[C@@H]2CC[C@H]1N2C(=O)NCC1CC1	-2.2%	13.7%
CC1(Oc2ccc3ccccc3c2)CCN(Cc2ccc(OC(F)(F)F)cc2)C1 (stereo not given)	-24.4%	-15.6%
COc1ccc(CCN2C(=O)CCC2(C)c2nnnn2Cc2ccccc2)cc1OC (stereo not given)	-4.4%	-13.5%
CCCC(=O)N1CCC1(C)C(=O)NS(=O)(=O)c1cc(C)ccc1F (stereo not given)	-16.4%	1.5%[18.4 µM]
CCC(c1nnnn1-c1ccc(OC)cc1)N1CCC2(CC1)C(=O)NCN2c1ccccc1 (stereo not given)	-2.8%	11.3%
COC(=O)[C@H](NC(=O)c1cc([C@@H](NC(=O)OC(C)(C)C)C(C)C)sc1N)C(C)C	-10.4%	-20.3%
CC(=O)NCCNc1nc2cc(-c3ccccc3)sc2c(=O)n1C	-15.7%	-11.0%
Cc1cccc(NC(=O)CN2CCN(C(=O)CNC(=O)c3ccc(-c4ccccc4)cc3)CC2)c1C	20µM*	-6.8%
CC(C)CNC(=S)N1CCC(C(=O)c2ccc(Cl)cc2)CC1	?	13.6%
CC(=O)c1ccccc1C(=O)N1CCCC(CNC(=O)c2ccc(F)cc2)C1 (stereo not given)	24.1%	11.0%
COc1ccc(-c2ccc3[nH]c4c(c3c2)CCN2C(=O)[C@@H]([C@H](C)O)[C@@H](N(C)C(=O)Nc3ccccc3)C[C@@H]42)cc1	-6.1%	-10.6%
Nc1nc2c(ncn2[C@@H]2O[C@H](CNCc3ccc(Oc4cc(-n5cccn5)ncn4)cc3)[C@@H](O)[C@H]2O)c(=O)[nH]1	-2.5%	6.6%
C[C@H]1COc2cccc(N(C)CCO)c2S(=O)(=O)N1	-12.7%	-4.6%
COc1ccc(CC(N)c2csc(NC(=O)Nc3ccccc3C(C)C)n2)cc1 (stereo not given)	-23.5%	2.3%

Shown field by field: part of the list above
> Nc1nc2c(ncn2[C@@H]2O[C@H](CNCc3ccc(Oc4cc(-n5cccn5)ncn4)cc3)[C@@H](O)[C@H]2O)c(=O)[nH]1
  2A StopGo: -2.5%	RE007 growth inh: 6.6%

> C[C@H]1COc2cccc(N(C)CCO)c2S(=O)(=O)N1
  2A StopGo: -12.7%	RE007 growth inh: -4.6%

> COc1ccc(CC(N)c2csc(NC(=O)Nc3ccccc3C(C)C)n2)cc1 (stereo not given)
  2A StopGo: -23.5%	RE007 growth inh: 2.3%

Going on with the list:
SMILES	2A StopGo	RE007 growth inh
CCC(=O)N(C)C[C@@H]1Oc2ncc(Br)cc2C(=O)N([C@@H](C)CO)C[C@H]1C	-13.5%	-24.5%
COc1ccc([C@H]2CC(=O)C[C@@H](CCn3cc(-c4cccnc4)nn3)O2)cc1	-11.4%	-9.3%
CCCCN(C)c1c(C)nc2ccc(C(=O)Nc3cc(-c4ccccc4)ccc3OC)cn12	-8.0%	-4.4%
OC[C@@H]1CN(Cc2cccnc2)C[C@H](n2cnc3c(N4CCCC4)ncnc32)O1	-5.3%	2.7%
O=S1(=O)C[C@H](N2CC[C@@H](O)C2)[C@@H](COCc2ccccc2)N1	-13.1%	-1.1%
C#CCOCCOCCOCCNc1nc(N2CCN(C(=O)C([C@@H](C)CC)n3cc(C(N)COC(=O)C(F)(F)F)nn3)CC2)nc(N2CCN(C(=O)C([C@@H](C)CC)n3cc(C(N)CC(C)C)nn3)CC2)n1 (stereo not given in full)	0.0%	6.1%
CCCCNC(=O)c1onc(CSc2ccccn2)c1C(=O)NCCCC	-9.1%	0.4%
O=C1NC[C@H](Cc2ccccc2)N(C[C@H]2CCCN2C[C@H](Cc2ccccc2)N2C[C@H](Cc3ccc(O)cc3)N(CCc3ccccc3)C(=O)C2=O)C1=O	-18.6%	8.9%
O=C(CSc1nccn1Cc1ccc(F)cc1)NC1CCCCC1	-21.1%	-3.3%
COc1ccccc1OCC(=O)NCC1CCCN(C(=O)c2cccc(C)c2)C1 (stereo not given)	-23.3%	-4.2%
CCCNC(=O)C1(C)CCN(C(=O)c2ccc(F)cc2Cl)C1 (stereo not given)	-18.0%	9.2%
O=C(Nc1cccc(S(=O)(=O)N2CCCCC2)c1)[C@@H]1CCCN1S(=O)(=O)c1ccccc1C(F)(F)F	-19.0%	-8.7%
COCC(=O)N1CCC2CC1c1c(-c3ccc(C(F)(F)F)cc3)cccc12 (stereo not given)	-24.0%	1.3%
Cc1cc2nc(-c3ccccc3)c(Cc3cccc(Cl)c3)n2c(C)c1Br	-0.6%	-11.2%
CCN(CC)C(=O)C1=C(C)N(CCC2=CCCCC2)C(=O)C(CC(=O)NC2CCCC2)C1 (stereo not given)	-15.1%	-6.4%
COc1ccc(S(=O)(=O)NC(=O)C2(C)CCN2C(=O)C(C)(C)c2ccccc2)cc1 (stereo not given)	38.8%[activator]	5.0%[18.4 µM]
OC(c1ccccc1)c1ncc(-c2cccc(OCc3ccccc3)c2)[nH]1 (stereo not given)	-0.1%	5.7%
CCc1nc2c(OCc3cccc(Cl)c3)cccn2c1N(C)C(=O)c1ccncc1	-23.4%	-7.7%[18.4 µM]
CC1=C(C(=O)N2CCOCC2)CC(CC(=O)NCCCN(C)C)C(=O)N1CCC1=CCCCC1 (stereo not given)	-11.6%	0.7%
Oc1ccc(-c2cnc3c(Nc4cccc(OC(F)(F)C(F)F)c4)nccn23)cc1	-24.8%	-2.7%[18.4 µM]
COc1ccc(NC(=O)C(c2ccccc2F)n2c(=O)c(-c3ccco3)nc3ccccc32)cc1 (stereo not given)	2.6%	8.3%
Cn1c(=O)c2cc(NC(=O)CCc3cccnc3)ccc2n1Cc1ccc(F)cc1	-13.3%	-21.1%[18.4 µM]
COCCNc1nc(Nc2ccc(C(=O)OC)cc2)c2sccc2n1	?	-11.0%
CCCCCCn1c(=O)n2n(c1=O)[C@@H]1CN(S(=O)(=O)c3ccc(C)cc3)C[C@]1(O)[C@@H](OC(=O)NCc1ccccc1)C2	-15.1%	1.1%
O=C(N[C@H](CO)Cc1ccccc1)c1ccco1	-6.0%	-10.9%
CCc1nc2c(OCc3cccc(Cl)c3)cccn2c1N(C)C(=O)c1ccc(OC)cc1	-1.7%	-23.6%
CCOc1ccc(CCN2C(=O)C(=O)N([C@@H](Cc3ccc(O)cc3)CN3CCC[C@H]3CN3C(=O)C(=O)NC[C@@H]3Cc3ccccc3)C[C@@H]2Cc2ccc(O)cc2)cc1	-4.9%	-16.5%
O=C1NC[C@@H](CCCCN2CCN(CCC3CCCCC3)C(=O)C2=O)N(Cc2ccccc2)C1=O	5.1%	2.4%
CC1(C(=O)NCc2ccccc2)CN(S(C)(=O)=O)CC(=O)N1Cc1cccc(C(F)(F)F)c1 (stereo not given)	-14.5%	13.9%
CC(=O)Nc1ccc(NC(=O)c2csc([C@H]3C[C@H](O)[C@@H](CO)O3)n2)cc1	-1.3%	3.9%
COc1cccc(C#CC2=CC(=O)CC(C)(C)C2)c1	-19.2%	-27.5%
CC(C)NC(=O)N(C)C[C@@H]1OCc2cnnn2CCCC(=O)N([C@H](C)CO)C[C@@H]1C	-12.7%	-0.4%
Nc1[nH]c(C(=O)c2ccccc2)c(-c2ccc(F)cc2)c1C(=O)NCCc1c[nH]c2ccccc12	-13.6%	-13.2%
CN(C)c1ccc(C=C(C#N)C(=O)c2ccccc2)cc1Br	-0.6%	-5.8%[18.4 µM]
Cc1cc(C)nc(Nc2nc(C(N)Cc3ccc(F)cc3)cs2)n1 (stereo not given)	23.4%	-25.8%
CN(c1ccc(O)cc1)c1ccc([N+](=O)[O-])c2nonc12	-28.7%	-17.2%
O=C(Nc1ccncc1)c1cc(-c2ccccc2)nc2ccccc12	-2.5%	1.3%
CCCc1c(C(=O)N/N=C/c2ccoc2)nnn1-c1nonc1N	0.0%	11.6%
COc1ccc(Cc2c(-c3ccco3)nc3ccc(Br)cn23)c(C)c1	?	-18.3%
COc1cc(CNC(=O)c2cc(-c3cc(Cl)ccc3OC)n[nH]2)cc(OC)c1	-26.3%	-17.6%[18.4 µM]
Cc1ccc2cccc([N+](=O)[O-])c2n1	-20.0%	-11.5%
Cc1cccc(C)c1NC(=O)C1c2ccccc2OCC(=O)N1CCCN1CCOCC1 (stereo not given)	-19.7%	4.8%
CC(=O)Nc1ccc(C=Cc2ccc([N+](=O)[O-])cc2)cc1	34.7%[activator]	-15.3%
O=C(OCc1ccccc1)N1CCC2CC1c1ccc(-c3ccc4c(c3)OCO4)cc12 (stereo not given)	19.9%	1.0%
Cc1cc(C)n2nc(-c3ccc(F)cc3)cc2n1	71.9%[activator]	-4.5%
CN(C)C(=S)Oc1ccccc1C1(C)OCCO1	-2.8%	-2.9%

Complete entries, looked up by structure. Order of values: 2A StopGo, RE007 growth inh
Listed for O=C(Nc1ccncc1)c1cc(-c2ccccc2)nc2ccccc12 = -2.5%, 1.3%
Listed for CC(=O)Nc1ccc(C=Cc2ccc([N+](=O)[O-])cc2)cc1 = 34.7%[activator], -15.3%
Listed for CN(C)c1ccc(C=C(C#N)C(=O)c2ccccc2)cc1Br = -0.6%, -5.8%[18.4 µM]

Source: PubChem BioAssay (National Center for Advancing Translational Sciences (NCATS))
